# D2 PAM – human D2 receptor positive allosteric modulation; AID 624464; DiscoveRx D2 beta-arrestin cells, luminescence, 90 min; 100% = 57 uM dopamine signal; P14416; potentiation, % (test concentration not listed); 0.23% of 360,000 active; active = potentiation of 50% or more; inconclusive = 30% to 50%; inactive = 30% or less;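 also: compound concentration not given in the record; tested on top of an EC20 dose of dopamine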
# Target sequence (P14416 whole entry, looked up): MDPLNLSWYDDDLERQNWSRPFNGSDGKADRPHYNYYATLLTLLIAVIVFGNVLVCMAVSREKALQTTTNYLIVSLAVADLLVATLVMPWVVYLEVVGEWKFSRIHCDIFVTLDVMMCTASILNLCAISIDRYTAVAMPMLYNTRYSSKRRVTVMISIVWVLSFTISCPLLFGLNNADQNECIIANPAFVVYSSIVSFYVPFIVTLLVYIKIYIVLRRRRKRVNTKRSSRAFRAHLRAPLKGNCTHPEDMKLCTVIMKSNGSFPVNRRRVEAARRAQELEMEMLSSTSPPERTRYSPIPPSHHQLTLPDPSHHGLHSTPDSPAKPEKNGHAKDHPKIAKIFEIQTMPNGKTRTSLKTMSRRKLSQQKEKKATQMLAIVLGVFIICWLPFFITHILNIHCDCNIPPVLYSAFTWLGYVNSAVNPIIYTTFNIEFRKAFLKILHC
#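 PathHunter D2 cells, attached overnight at 37 deg C, received compound in DMSO plus dopamine at EC20 (50 nM final) for 90 min at 37 deg C. Beta-arrestin recruitment was read as luminescence after 1 h with detection reagent at ambient temperature.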
# TRPV1 potentiator – human TRPV1 potentiation; Q8NER1; TRPV1-expressing cells, Fluo-8 calcium influx, capsaicin EC20 potentiation; host cell line not named in the record; control for the full effect not named in the record; potentiation, % at 8.33 µM; 0.02% of 320,000 active; AID 540277; active means potentiation above 80%; inconclusive means 30% to 80%; inactive means below 30%; also: 0% is about no effect
#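 TRPV1-expressing cells were cultured overnight at 35.5C and loaded with Fluo-8 calcium dye for 40 to 90 min at room temperature. After a 10 s baseline, compound was added and calcium influx was read kinetically for 3 min (ex 480/em 520 nm).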
# Six1-Eya2 blk – inhibitors of human Six1/Eya2 interaction; Q15475+O00167; AlphaScreen GST-Six1/His-Eya2 binding, biochemical; hits give low values; control for the full effect not named in the record; activity change, % (concentration not given with the values); 0.56% of 360,000 active; AID 651725; in the data active = activity change below about -65%; inconclusive = about -30% to -65%; inactive = above about -30%; also: % is scaled to controls: 0 for no effect and ±100 for the full control effect
#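 Compounds are tested against tagged Six1 and Eya2 proteins bridged by glutathione donor and nickel acceptor beads; after a one-hour incubation at 37 °C without light, AlphaScreen emission is recorded.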
# CtBP-E1A blk – CtBP/E1A binding inhibition. AlphaScreen GST-E1A/His-CtBP binding, 1536-well; hits give low values; control for the full effect not named in the record. activity change, % (test concentration not listed). 0.49% of 340,000 active; in the data active means activity change below about -65%; inconclusive means about -30% to -65%; inactive means above about -30%; also: % is scaled to controls: 0 for no effect and ±100 for the full control effect; compound concentration not given in the record
#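 Protein mix (5X: 125 nM each GST-E1A, His-CtBP) was incubated with pinned compound 2 h at 37 deg C in dark, in 50 mM Tris pH 8.0 buffer with 300 mM NaCl. Glutathione donor and nickel acceptor beads followed; AlphaScreen signal read after 1 h.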
# TRPML1 ag – activates the human TRPML1 channel; Q9GZU1; TRPML1-expressing cells, Ca2+ dye fluorescence, FDSS; host cell line not named in the record; reference of the full effect not given here; activation, % (concentration not given with the values); 0.12% of 410,000 active; AID 624414; in the data active = activation above about 50%; inconclusive = about 30% to 50%; inactive = below about 30%; also: 0% is about no effect; the text of the record puts the active cut at 80%
# Target sequence (Q9GZU1 whole entry, looked up): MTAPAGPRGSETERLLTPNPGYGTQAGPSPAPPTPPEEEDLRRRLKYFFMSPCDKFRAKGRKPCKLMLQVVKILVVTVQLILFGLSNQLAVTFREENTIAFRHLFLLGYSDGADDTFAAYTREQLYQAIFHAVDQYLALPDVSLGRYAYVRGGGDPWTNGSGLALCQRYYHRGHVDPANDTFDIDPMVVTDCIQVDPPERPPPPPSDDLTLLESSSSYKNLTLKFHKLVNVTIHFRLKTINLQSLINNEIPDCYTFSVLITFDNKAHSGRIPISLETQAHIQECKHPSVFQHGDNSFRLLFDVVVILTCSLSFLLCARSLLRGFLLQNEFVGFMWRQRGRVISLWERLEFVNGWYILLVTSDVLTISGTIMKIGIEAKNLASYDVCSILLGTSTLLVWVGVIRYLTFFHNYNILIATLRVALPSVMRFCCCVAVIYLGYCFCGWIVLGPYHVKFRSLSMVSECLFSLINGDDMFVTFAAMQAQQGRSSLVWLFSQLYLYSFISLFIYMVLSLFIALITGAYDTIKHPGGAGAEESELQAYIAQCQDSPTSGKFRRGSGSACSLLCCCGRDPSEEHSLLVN
#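 Calcium fluorescence on an FDSS kinetic reader gave the read-out. Tet-induced TRPML1-DL cells were plated overnight, dye-loaded (Ca8 with quencher, 45-90 min, room temperature, dark), then read 110 s after compound addition, and again 110 s after 4uM final 54-4 (EC80).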
# TRPML1 inh – human mucolipin-1 channel inhibition. TRPML1-inducible cells, Ca2+ dye fluorescence, FDSS; hits give low values; inhibition of EC80 agonist-evoked calcium signal. activity change, negative = inhibition, % (test concentration not listed). AID 624415. 0.02% of 390,000 active. Q9GZU1; in the data active means activity change below about -50%; inconclusive means about -30% to -50%; inactive means above about -30%;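 also: stimulus is agonist 54-4 at its EC80 concentration; % is scaled to controls: 0 for no effect and ±100 for the full control effect; compound concentration not given in the record; the text of the record puts the active cut at -80%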
#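 Calcium fluorescence in TRPML1-DL cells induced overnight with Tet: a 110 s read after compound pin addition, then a 110 s antagonist read after challenge with 54-4 at 4 uM final (EC80).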
# Active calls of the source: *; u = inconclusive; x = not tested or not shown; & = joins results of further samples. Compounds were not picked by outcome, and some 0.95% of all compounds hit somewhere here.
SMILES,D2 PAM,TRPV1 potentiator,Six1-Eya2 blk,CtBP-E1A blk,TRPML1 ag,TRPML1 inh
COc1ccc(CCNC(=O)CN(C2CCCCC2)S(C)(=O)=O)cc1OC,2,11,2,7,0.7,-1
O=C(CN1CCN(C(=O)CNC(=O)c2ccc3c(c2)OCO3)CC1)Nc1ccc(F)cc1,3,-4,11,x,-0.5,-8
CCOCc1nnc(NC(=O)C2CC(=O)N(C3CCCC3)C2)s1 (stereo not given),-4,4,-1,2,0.1,13
Cc1cccc(OCC(=O)N/N=C\c2cccn2C)c1C,-6,-26,-15,-14,-0.5,-8
c1ccc(CSc2nnc(-c3ccccn3)n2-c2ccccc2)cc1,-23,-11,-7,0,-0.2,14
CCOc1cc(NC(=O)c2ccco2)c(OCC)cc1NC(=O)CCc1ccccc1OC,-3,2,-18,-11,3.1,4
Nc1cccnc1Sc1cc(Cl)cc(Cl)c1,-2,3,4,8,2.2,-15
COc1ccc(NC(=O)c2cc(C3CCCCN3S(=O)(=O)c3cn(C)cn3)on2)c(C)c1 (stereo not given),14,x,7,3,-0.5,x
CCCC(=O)NC(=S)Nc1ccccc1C(=O)OC,-6,2,6,-3,-0.4,-2
Cc1c(/C=N/NC(=O)COc2ccccc2[N+](=O)[O-])c2ccccc2n1C,-6,-8,-17,x,-1.5,0
Cc1cc(C)cc(C(=O)NCC(=O)OCC(=O)NCC(F)(F)F)c1,5,1,0,3,-0.7,25
COc1ccccc1CCNC(=O)C1CCCO1 (stereo not given),1,u,26,37,-0.3,0
CCOc1ccc(Br)cc1CC(=O)O,-9,x,9,4,1.6,6
CN(C)c1nccc(N(Cc2ccccc2)Cc2ccccc2)c1C#N,-6,-21,23,16,3.1,33
Cc1cc(NC(=O)CN2CCCC(C)C2)no1 (stereo not given),-4,-7,-5,-15,1.3,-9
COc1ccc(CCN2CCCC(CN(C)C(=O)c3ccoc3C)C2)cc1 (stereo not given),-7,-20,-2,6,-0.1,20
CN1C2C=CC(=O)C1C1C(=O)N(c3ccccc3)C(=O)C12 (stereo not given),-4,x,0,11,0.0,x
Cc1ccc(C(=O)Nc2nnc(-c3ccco3)o2)cc1C,-1,u,-22,-14,0.5,2
CCOC(=O)CNC(=O)N1c2ccccc2Sc2ccccc21,-3,-5,5,x,-0.8,8
CCOC(=O)c1sc2nc(C)c3c(c2c1N)CC(C)(C)OC3,9,-2,8,8,-0.6,24

# Molecules from the list above with an aryl thioether with sulfur outside any ring (two):
SMILES,D2 PAM,TRPV1 potentiator,Six1-Eya2 blk,CtBP-E1A blk,TRPML1 ag,TRPML1 inh
c1ccc(CSc2nnc(-c3ccccn3)n2-c2ccccc2)cc1,-23,-11,-7,0,-0.2,14
Nc1cccnc1Sc1cc(Cl)cc(Cl)c1,-2,3,4,8,2.2,-15

# (next part)
SMILES,D2 PAM,TRPV1 potentiator,Six1-Eya2 blk,CtBP-E1A blk,TRPML1 ag,TRPML1 inh
CCCCC(=O)Nc1nc(C)c(-c2csc(Nc3cc(OC)ccc3OC)n2)s1,-8,4,-20,x,0.0,-28
Cc1ccc(OCC(=O)Nc2ccccc2C(=O)NC2CC2)cc1,3,-8,0,0,1.6,-4
CCn1c2ccccc2c2cc(NC(=O)Cc3ccc(S(=O)(=O)N4CCOCC4)s3)ccc21,1,7,-17,-12,1.0,-10
Cn1c(N)c(C(=O)COC(=O)CCc2c[nH]c3ccccc23)c(=O)n(C)c1=O,-21,5,-25,-13,0.4,4
O=C(COC(=O)c1ccc2c(c1)OCCO2)Nc1ccccc1C(F)(F)F,-1,x,8,4,-0.1,-5
CCN(CC1CCCO1)C(=O)c1cc(COc2ccc(F)cc2F)on1 (stereo not given),-12,-15,-2,10,1.7,9
CC1CN(S(=O)(=O)c2ccc(C(=O)Nc3ccc(S(=O)(=O)Nc4ncccn4)cc3)cc2)CC(C)O1 (stereo not given),-14,-10,11,7,-0.5,-2
Cc1ccccc1NC(=O)c1ccccc1O,-17,-3,0,-10,0.8,6
Cc1ccc(S(=O)(=O)CCC(=O)Oc2ccc3c(C)cc(=O)oc3c2)cc1,0,-3,3,-3,1.8,-23
Cc1ccc(OCCCCCN2CCOCC2)c(Cl)c1,-3,x,-18,-14,1.3,-7
CCN(CC(=O)Nc1ccccc1C(F)(F)F)C(=O)C1=COCCO1,0,-2,7,2,-0.1,13
O=C(Nc1ccc[n+](CC(=O)c2cccc3ccccc23)c1)c1ccccc1,-29,4,-5,-6,1.6,27
C=CCn1c(SCC(=O)NCC(=O)OCC)nnc1-c1ccccn1,-1,1,-1,0,0.0,4
CCCSc1nc(C)c(C(C)=O)cc1C#N,10,7,10,5,-0.2,18
NC(=O)C1CCN(C(=O)CSc2nc3c(c(-c4ccccc4)n2)CCCC3)CC1,14,11,-1,7,-0.8,-12
O=C(c1noc2c1CCCC2)N1CCC(CO)(Cc2ccccc2Cl)CC1,-5,-12,1,-1,0.3,-6
Cc1ccc(CN2C(=O)C(CC(C)C)Nc3ncnc(N4CCOCC4)c32)cc1 (stereo not given),-3&-3,x,-4&2,4&-2,-0.7&-0.4,-13&1
CN(C)CCNC(=O)/C(=C/c1ccc(-c2cccc([N+](=O)[O-])c2)o1)NC(=O)c1ccccc1,-8,u,2,4,-0.3,-7
CCCNC(=O)/C(C#N)=C1\N=C(NC(=O)c2cccs2)c2ccccc21,-8,13,-11,-13,-0.1,10
Cc1ccc(NC(=O)CN2CCN(C(=O)c3ccco3)CC2)cc1,2,12,-1,13,0.8,19

# An excerpt from above in order of their number in D2 PAM, lowest first:
molecule | D2 PAM
c1ccc(CSc2nnc(-c3ccccn3)n2-c2ccccc2)cc1 | -23
CCn1c2ccccc2c2cc(NC(=O)Cc3ccc(S(=O)(=O)N4CCOCC4)s3)ccc21 | 1
NC(=O)C1CCN(C(=O)CSc2nc3c(c(-c4ccccc4)n2)CCCC3)CC1 | 14

# New compounds follow
SMILES,D2 PAM,TRPV1 potentiator,Six1-Eya2 blk,CtBP-E1A blk,TRPML1 ag,TRPML1 inh
Cc1onc(-c2ccccc2)c1C(=O)Nc1ccccc1N1CCOCC1,8,-26,-6,2,-0.6,3
CCOc1ccc(NC(=O)COc2ccccc2)c([N+](=O)[O-])c1,-17,9,-27,-24,1.0,40
CCN(CC)C(=O)Cn1cc(SCC(=O)NC2CCCCC2)c2ccccc21,-3,x,9,8,-0.2,-5
CNC(=S)NNC(=O)c1sccc1OCc1ccc(Cl)cc1Cl,-14,12,1,0,-0.1,6
Cc1cccc(N2CCN(CC(O)COCc3cccs3)CC2)c1C (stereo not given),-12,-1,0,-2,2.9,35
CCCCSc1ncc(C(=O)OCC)c(N)n1,-1,-22,19,8,0.4,2
O=C(C1CCN(S(=O)(=O)c2ccc(F)cc2)CC1)N1CC=C(c2ccccc2)CC1,8,7,-5,-14,1.8,-5
O=C(CCOc1ccccc1)N1CCCC(Nc2ccccc2)C1 (stereo not given),-10,x,-2,2,-0.8,-3
COc1ccc(NC(=O)CNC(c2ccccc2)c2ccccc2)cc1Cl,-12,0,6,2,0.0,-7
Cc1cccc(N(C(=O)c2csnn2)C(C(=O)NC2CCCC2)c2ccncc2)c1 (stereo not given),0,-5,8,6,-0.3,-4
Cc1cn([C@H]2C[C@H](O)[C@@H](CCC(=O)NCc3cccs3)O2)c(=O)[nH]c1=O,-1,x,6,10,-0.4,9
CC(C)C[C@H]1CN([C@@H](CC(C)C)CN2CCC[C@@H]2CN2C(=O)C(=O)NC[C@@H]2Cc2ccccc2)C(=O)C(=O)N1CCc1ccccc1,-4,x,-5,-7,-0.6,-14
CC(=O)NC(Cc1ccc(F)cc1)C(=O)NC1CCN(S(=O)(=O)c2ccccc2)CC1 (stereo not given),-3,-4,6,5,-0.1,-3
CN1CCN2c3ccccc3CC(C#N)(C#N)C2C1 (stereo not given),-4,x,8,12,-0.5,x
COc1ccc(N2CCN(C(=O)Nc3ccc(S(=O)(=O)N(C)C)cc3)CC2)cc1,-2,-15,-17,-25,0.7,10
COc1ccc(OC)c(/C=N/NC(=O)c2ccc(=O)[nH]n2)c1,-10,-17,-1,x,0.1,-12
COc1cccc(NC(=O)Cn2cc(C(=O)C3CC3)c3ccccc32)c1,-10,3,3,-3,0.0,-3
CC(=O)c1cccc(CN2CCN(CCC(C)C)C(CCO)C2)c1 (stereo not given),-11,5,0,11,1.3,-9
COc1ccc(NS(=O)(=O)c2ccc(C)c(C(=O)N3CC(C)OC(C)C3)c2)cc1 (stereo not given),4,-1,-3,0,1.4,-23
CCN(CC)CCNC(=O)CCc1n[nH]c(=O)c2ccccc12,-3,22,4,8,0.6,31
O=C1N=C(N2CCOCC2)S/C1=C\c1ccncc1,-7,2,-3,-2,-0.1,-1
COCc1cc(C)nc(SCC(=O)NCC2CCCO2)c1C#N (stereo not given),-4,u,-1,2,0.0,3
Cc1cc(C(=O)c2ccccc2)nc2ccccc12,-1,-2,41,17,1.2,24
COc1ccc(/C=C2\N=C(C)OC2=O)cc1[N+](=O)[O-],-8,-5,0,-2,0.4,11
C/C(=N\Nc1nc(N2CCCCC2)nc(N2CCOCC2)n1)c1ccccc1O,1,0,10,-12,3.1,6
COC(=O)CNC(=O)C1CC(=O)N(CCc2ccc(F)cc2)C1 (stereo not given),-19,0,30,-2,-0.3,-2
COc1ccc(S(=O)(=O)NNC(=S)NCCc2ccccc2)c(OC)c1,-15,-2,1,4,-0.3,0
O=C(Cc1ccccc1)c1ccccc1C(=O)N1CCCCC1,-6,3,6,5,-1.2,-5
Cc1ccccc1NC(=O)/C=C/c1ccc([N+](=O)[O-])s1,-1,-21,-10,5,0.0,37
COc1ccccc1Cc1nc(-c2ccc(Br)o2)no1,3,x,18,24,1.0,-3
O/N=C/C1=C(Cl)c2ccccc2CC1,-2,-8,-1,24,3.0,-8
Cc1ccc2c(c1)N(CCCC(=O)NCc1cccnc1)C(=O)CO2,-6,19,4,6,0.1,20
O=C(CSc1ncnc2c1cnn2-c1ccc(F)cc1)NCC1CCCO1 (stereo not given),-11,1,1,-1,-0.7,-5
O=C(CN1C(=O)S/C(=C\c2ccc(F)cc2)C1=O)Nc1cccc(S(=O)(=O)NCc2ccco2)c1,-5,6,-10,-4,1.5,27
COc1ccc(C(=O)O)cc1NCc1ccc(C)s1,-4,16,-1,7,-0.5,6
CC(=O)Nc1nnc(-c2ccc3c(c2)CCCC3)o1,-8,x,-13,-4,-0.7,-3
COc1ccc(/C=C/C(=O)c2ccc(OC)cc2OC)cc1,-34,15,3,-3,x,x
Cc1nnc(SCC(=O)Nc2ccc(C(N)=O)cc2)n1-c1ccccc1,-6,19,13,3,-0.1,4
COCOc1ccc(/C=C/C(=O)c2c(O)cc(OCOC)cc2OCOC)cc1,-13,x,-3,4,x,x
CC(=O)Nc1cccc(-c2ccnc3c2CC(C(=O)NCc2ccc(N4CCN(C)CC4)cc2)O3)c1 (stereo not given),-5,x,-11,-15,-0.8,x
c1ccc2c(-c3cncc4ccccc34)cncc2c1,-4,x,-7,0,2.0,-7
CCn1cc(Br)c(C(=O)Nc2ccc(Cl)c(Cl)c2)n1,0,-8,9,8,0.0,43

# High-throughput results as filed in PubChem.
